EPAC1 agonist: validation of human EPAC1 agonists; O95398; EPAC1 Rap1b BODIPY-GDP exchange, fluorescence; Potency, µM, without a hit: max response, positive = active, hits mostly activators; 16,000 compounds, 1% hits; AID 1645883; active = well fitted activation curve with a large enough effect; inconclusive = small, poorly fitted or top-dose-only effect; inactive = no such curve, though single readings can be large or run the other way;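 note: nearly all actives have a fitted effect of over 70% in size; series mostly up to about 76 or 150 µM; scaled to a cAMP control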
Target sequence (O95398 whole entry, looked up): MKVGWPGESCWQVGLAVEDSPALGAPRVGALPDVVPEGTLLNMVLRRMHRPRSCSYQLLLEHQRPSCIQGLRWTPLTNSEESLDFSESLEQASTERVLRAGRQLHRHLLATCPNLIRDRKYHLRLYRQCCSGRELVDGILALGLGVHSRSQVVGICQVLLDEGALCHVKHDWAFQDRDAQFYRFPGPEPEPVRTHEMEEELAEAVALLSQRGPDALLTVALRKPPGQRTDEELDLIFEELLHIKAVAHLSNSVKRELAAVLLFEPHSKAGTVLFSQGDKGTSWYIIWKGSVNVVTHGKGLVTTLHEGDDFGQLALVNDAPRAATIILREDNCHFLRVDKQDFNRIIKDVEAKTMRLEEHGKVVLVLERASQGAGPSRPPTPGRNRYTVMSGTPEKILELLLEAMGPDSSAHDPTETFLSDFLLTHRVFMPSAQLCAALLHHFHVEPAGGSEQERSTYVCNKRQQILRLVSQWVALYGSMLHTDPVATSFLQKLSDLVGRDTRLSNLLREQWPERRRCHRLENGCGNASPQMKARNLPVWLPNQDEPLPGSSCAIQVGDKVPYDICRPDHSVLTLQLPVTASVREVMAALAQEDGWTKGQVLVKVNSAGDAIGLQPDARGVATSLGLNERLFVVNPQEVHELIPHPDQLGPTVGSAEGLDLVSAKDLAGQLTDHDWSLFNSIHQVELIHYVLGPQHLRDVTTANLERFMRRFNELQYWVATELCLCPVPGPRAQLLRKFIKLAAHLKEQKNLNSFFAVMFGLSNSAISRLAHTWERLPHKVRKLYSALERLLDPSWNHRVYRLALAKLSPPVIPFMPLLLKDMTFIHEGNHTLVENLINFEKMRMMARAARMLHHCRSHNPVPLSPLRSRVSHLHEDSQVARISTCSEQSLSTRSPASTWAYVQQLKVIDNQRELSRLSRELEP
Active calls of the source: *; ? = inconclusive; & = joins results of further samples; [ ] = dose if it differs, or a comment. % is set by controls: 0 for no effect and ±100 for the full control effect; potency is the fitted concentration of half-maximal effect.

Molecule | EPAC1 agonist
CN(Cc1ccon1)C(=O)c1cnn(-c2ncc3c(n2)-c2ccccc2CCC3)c1C1CC1 | -16%
O=C(c1c(O)c2ccc(Cl)cc2[nH]c1=O)C1CC1 | -9%&-14%
CCC(=O)OCC(=O)[C@@]1(OC(=O)CC)[C@@H](C)C[C@@H]2[C@H]3CCC4=CC(=O)C=C[C@]4(C)[C@@]3(F)[C@@H](O)C[C@@]21C | -49%[inhibitor]
Cc1ccnc2ccc([N+](=O)[O-])cc12 | ?
CN1CCC(OC(c2ccccc2)c2ccccc2)CC1 | 6%&-45%
COCCn1c(=O)c(-c2cccc(C#N)c2)nc2cnc(Oc3cccc(Cl)c3)nc21 | -10%
O=c1cc(-c2ccccc2)oc2cc(O)cc(O)c12 | -19%&-28%&24%
CS(=O)(=O)Nc1cccc(-c2nc(N3CCOCC3)c3ccccc3n2)c1 | 6%
COC(=O)N1CCC2(CCCN(C(=O)Nc3cccc(F)c3)C2)CC1 | -51%[inhibitor]
CC(C)(C)NCC(O)c1cc(O)cc(O)c1 (stereo not given) | -2%&13%&3%
COc1ccccc1CNc1ncnc2ccc(-c3ccc4c(c3)OCO4)cc12 | ?
COc1cc(O)c(C(=O)/C=C/c2ccc(O)c(OC)c2)c(OC)c1 | -2%
c1ccc(CNc2ncncc2-c2ccc3c(c2)OCO3)cc1 | ?
COC(=O)N1CCC[C@@]2(CCN(C(=O)Nc3ccc(OC)cc3)C2)C1 | -59%[inhibitor]
CC(C)[N+](C)(C)CC(O)COc1cccc2ccccc12 (stereo not given) | -27%
COc1cc(-c2cc(C)c3c(OC)ccc(OC)c3n2)cc2c1OCCN(Cc1cn(C)nc1C)C2 | 8%
Cc1cnc(SCC2CCCO2)nc1C1CCCN(Cc2cc3c(cc2Cl)OCO3)C1 (stereo not given) | -4%
N[C@](CC1c2ccccc2Oc2ccccc21)(C(=O)O)[C@@H]1C[C@@H]1C(=O)O | 3%
CC(=O)N1CCC2(CCCN(C(=O)Nc3cccc(C#N)c3)C2)CC1 | -42%[inhibitor]
COC(=O)C1CCCCN1Cc1ccc2c(c1)CN(Cc1cc(OC)c3c(c1)OCO3)CCO2 (stereo not given) | 2%
CCC(=O)NC1Cc2ccccc2C(c2ccccc2)C1 (stereo not given) | -9%
CCN(Cc1ccncc1)C(=O)[C@@H](CO)c1ccccc1 | 7%
COc1cccc2c1C(=O)c1c(O)c3c(c(O)c1C2=O)C[C@@](O)(C(=O)CO)C[C@@H]3O[C@H]1C[C@H](N)[C@H](O[C@@H]2CCCCO2)[C@H](C)O1 | 22%
O=c1[nH]c(=O)n([C@H]2C[C@H](O)[C@@H](CO)O2)cc1Br | 1%&-18%&-7%
NC(=O)c1cc[n+](CC2=C(C(=O)[O-])N3C(=O)[C@@H](NC(=O)Cc4cccs4)[C@H]3SC2)cc1 | -17%
O=C(c1cncs1)N(Cc1cc2cc3c(cc2nc1N1CCOCC1)CCC3)CC1CCCO1 (stereo not given) | -5%
O=C(c1cccnc1)C1CCCN(Cc2ccc3c(c2)CN(C(=O)c2cn4ccccc4n2)CCO3)C1 (stereo not given) | -2%
COc1ccc(Oc2ncc3nc(C)c(=O)n(-c4ccccc4)c3n2)cc1 | -29%
CN(C)CC(C)(O)c1ccc2c(c1)CN(Cc1cnn(-c3ccccc3)c1)CCO2 (stereo not given) | -7%
N[C@H](CCC(=O)NCC(=O)O)C(=O)O | 2%
CN1CCN(c2ccnc(-c3cccnc3)n2)CC1 | 13%
COc1cc2c(cc1OC)-c1cc(=Nc3c(C)cc(C)cc3C)n(C)c(=O)n1CC2 | ?
CCC(=O)O[C@]1(C(=O)CCl)[C@@H](C)C[C@H]2[C@@H]3C[C@H](F)C4=CC(=O)C=C[C@]4(C)[C@@]3(F)[C@@H](O)C[C@@]21C | 11%
COc1ccc(C(=O)NCC2Cc3cc(C)cc(-c4cc(C(C)=O)ccc4F)c3O2)c(OC)c1OC (stereo not given) | -3%
COc1ncc2nc(-c3ccc(F)cc3)c(=O)n(C[C@H]3CCCO3)c2n1 | -45%[inhibitor]
COc1cccc(C(=O)N2CCc3c(C(=O)NC(C)c4ccco4)c(OC)cc(=O)n3CC2)c1OC (stereo not given) | 2%
CC(=O)NCCNc1ncnc2ccc(-c3cccc(NS(C)(=O)=O)c3)cc12 | -31%
Cc1ccccc1-c1cc(NCc2cccnc2)ncn1 | -27%
CC(C)NC(=O)N1CCC2(CC1)CCN(C(=O)c1cccc(F)c1)CC2 | -58%[inhibitor]
COc1cccc(Cn2c(=O)cnc3cnc(OC)nc32)c1 | 19%

Three entries from above, set out differently:
EPAC1 agonist	structure
-2%	O=C(c1cccnc1)C1CCCN(Cc2ccc3c(c2)CN(C(=O)c2cn4ccccc4n2)CCO3)C1 (stereo not given)
-29%	COc1ccc(Oc2ncc3nc(C)c(=O)n(-c4ccccc4)c3n2)cc1
-7%	CN(C)CC(C)(O)c1ccc2c(c1)CN(Cc1cnn(-c3ccccc3)c1)CCO2 (stereo not given)

Next part.
Molecule | EPAC1 agonist
CC[C@H](C)CCCCC(=O)N[C@@H](CCN)C(=O)N[C@H](C(=O)N[C@@H](CCN)C(=O)N[C@H]1CCNC(=O)[C@@H]([C@H](C)O)NC(=O)[C@H](CCN)NC(=O)[C@H](CCN)NC(=O)[C@H](CC(C)C)NC(=O)[C@@H](CC(C)C)NC(=O)[C@H](CCN)NC1=O)[C@@H](C)O | -56%
NCC1O[C@@H](OC2C(N)C[C@H](N)[C@@H](O[C@H]3OC(CO)C(O)C(N)C3O)C2O)C(O)C(O)C1O (stereo not given in full) | ?
CN1CCN(c2ncc3nc(CCc4ccccc4)c(=O)n(CCc4ccccc4)c3n2)CC1 | 3%
O=C(O)/C=C/c1ccc(O)c(O)c1 | 9%&9%&-12%&-2%
O=C(C1CC12CCN(Cc1cccc3cccnc13)CC2)N1CCN(Cc2cccs2)CC1 (stereo not given) | 6%
Cc1ccc(CN2CCOc3ccc(CN4CCC(O)(c5cccnc5)CC4)cc3C2)cc1 | -18%
COc1ccc(CNc2cc(-c3cccc(C#N)c3)ncn2)c(OC)c1 | -19%
c1cncc(-c2nccc(NCc3cccs3)n2)c1 | -45%[inhibitor]
Cc1ccc(-c2ccc(C(=O)N3CCc4nnc(CNC(=O)c5ccccc5)n4CC3)cc2)cc1 | -7%
CN1CCN(c2ccnc(-c3ccc(N(C)C)cc3)n2)CC1 | -30%
CC(=O)c1ccc2c(c1)N(CCCN1CCN(CCO)CC1)c1ccccc1S2 | 7%
CC(=O)C[C@H]1c2ccccc2S(=O)(=O)N1C1CCCCC1 | -10%
Cc1cnc(CNc2ccnc(-c3ccccc3C)n2)cn1 | -28%
CCCCNC(=O)c1sc2ncnc(NCC3CCCO3)c2c1C (stereo not given) | 8%
CCOC(=O)C(=O)C1(C(=O)OCC)Oc2cc(OC)cc(OC)c2C(=O)C1c1ccccc1 (stereo not given) | ?
Clc1ccccc1-c1cc(NCCN2CCOCC2)ncn1 | -6%
CN1CCN2c3ccccc3Cc3ccccc3[C@@H]2C1 | 0%
Cc1nc2ccccc2nc1CN1CCOc2ccc(CN3CCc4sccc4C3)cc2C1 | 1%
COc1ccc(-n2c(=O)c(-c3cn(C)c4ccccc34)nc3cnc(OC)nc32)cc1 | -4%
COc1cc(/C=C(\C#N)C(N)=O)cc(CSc2nc3ccccc3s2)c1O | 1%&4%&10%

The results go on:
compound | EPAC1 agonist
C[C@@H](c1ncncc1F)C(O)(Cn1cncn1)c1ccc(F)cc1F (stereo not given in full) | -29%
c1ccc2c(CCC3CCNCC3)c[nH]c2c1 | ?
CC(=O)NC1C(O)C[C@@](O)(C(=O)O)OC1[C@@H](O)C(O)CO (stereo not given in full) | 8%
COCCn1c(=O)c(-c2cccs2)nc2cnc(N3CCOCC3)nc21 | 112µM*
Fc1ccc(C(c2ccc(F)cc2)N2CCN(C/C=C\c3ccccc3)CC2)cc1 | -7%
CO/N=C(\C(=O)N[C@@H]1C(=O)N2C(C(=O)O)=C(CSc3nc(C)c(CC(=O)O)s3)CS[C@H]12)c1csc(N)n1 | -8%
COc1ccccc1CN1CCCC2(CCN(C(=O)c3cccc(F)c3)CC2)C1 | -65%[inhibitor]
CC1(C)C(=O)C2C[C@]3(O)C4=CC(=O)OC(c5ccoc5)[C@]4(C)CCC3[C@](C)(C2=O)C1CC(=O)O (stereo not given in full) | 2%
COc1cccc(-c2cc(=O)c3ccccc3o2)c1N | -5%&-11%&-19%&-10%
Cn1c(=O)c(-c2ccc(F)cc2)nc2cncnc21 | -57%[inhibitor]
CC1=CC(=O)OC1Cc1ccc2ccccc2n1 (stereo not given) | -7%
Cc1cc(CNC(=O)c2cnn(-c3ncc4c(n3)-c3ccccc3CC4)c2C2CC2)on1 | 15%
CC(=O)NC(=O)c1ccccc1O | -19%
COc1ccc(CNc2ncncc2-c2ccoc2)c(OC)c1 | 25%
O=C1CC[C@@H](OCc2ccccc2)CCN1CC[C@H](Sc1ccccc1)c1ccccc1 | ?
C[C@@H](CSc1ccccc1)CN1CC[C@H](C(C)(C)C)CCC1=O | -90%[inhibitor]
O=S(=O)(c1ccccc1)N1CCC[C@@]2(CCN(C(c3ccccc3)c3ccccc3)C2)C1 | -10%
C[C@@H]1O[C@@H](OC[C@H]2O[C@@H](Oc3c(-c4ccc(O)c(O)c4)oc4cc(O)cc(O)c4c3=O)[C@H](O)[C@@H](O)[C@@H]2O)[C@H](O)[C@H](O)[C@H]1O | -23%
COc1ccc(C(=O)N2CCC3(CC2)CN(c2ccc(-c4ccccc4)cc2)C3)cc1 | -66%[inhibitor]
Cc1cc[n+](CCC2CCCCC2)c2ccccc12 | 0%
Cc1cc2c(cc1C)NC1(C[C@H]3CCC(=O)N4CC[C@@H](C1)[C@@H]34)C(=NC(C)(C)CC(C)(C)C)N2 (stereo not given in full) | -7%
Cc1c(C)c2c(c(C)c1O)CC[C@@](C)(CCC[C@H](C)CCC[C@H](C)CCCC(C)C)O2 | -43%&-48%&7%[inhibitor]
CSc1ncccc1C(=O)N1CCc2nnc(C(NC(=O)c3ccoc3)C(C)C)n2CC1 (stereo not given) | -12%
CCc1ccc(S(=O)(=O)NCc2nc(N3CCCC3)c3cccc(C)c3n2)cc1 | 15%
CC1(C)CO[C@@H](CC(=O)O)CN1 | ?
C=CC[N+]1([C@H]2C[C@H]3[C@@H]4CC[C@H]5C[C@H](OC(C)=O)[C@@H](N6CCCCC6)C[C@]5(C)[C@H]4CC[C@]3(C)[C@H]2OC(=O)CC)CCCCC1 | -15%
OC(CCN1CCCCC1)(c1ccccc1)c1ccccc1 | -11%&21%
NS(=O)(=O)c1cc(C(=O)O)c(NCc2ccco2)cc1Cl | 10%&-18%
Cc1c(C(=O)N(C)C2CCOC2)cnn1-c1ncc2c(n1)-c1ccccc1CCC2 (stereo not given) | -8%
CN1C(=O)OC(C)(C)C1=O | 2%
COc1ccccc1-c1cc(-n2ccnc2)ncn1 | -19%
O=Cc1ccc(I)cc1 | ?
CN(C)CCOC1=Cc2ccccc2Sc2ccc(Cl)cc21 | 15%
COc1ccc(CN2CCCC(Cn3cc(C(=O)N4CCCC4)nn3)C2)c(O)c1 (stereo not given) | -10%
Cn1c(=O)c(-c2cccs2)nc2cnc(OCc3ccccc3)nc21 | 26%
CN1CCN(c2ncc3nc(-c4ccccc4)c(=O)n(C4CC4)c3n2)CC1 | 25%
COc1c(C)c2c(c(O)c1C/C=C(\C)CCC(=O)O)C(=O)OC2 | -20%&-19%&-1%&-1%
COc1ccccc1C1CN(Cc2ccc(Sc3nncn3C)o2)Cc2ccccc2O1 (stereo not given) | 5%
Cc1ccc(S(=O)(=O)/C=C/C#N)cc1 | -7%&-14%
CC1=CC2C(=O)c3cccc(O)c3C(=O)C2C(O)=C1 (stereo not given) | ?
N#Cc1ccc(CN2CC[C@@]3(CCCN(C(=O)c4cc(C(F)(F)F)cc(C(F)(F)F)c4)C3)C2)cc1 | -84%[inhibitor]
O=C(O)C=Cc1ccc(Cn2ccnc2)cc1 | -4%
CN(C)Cc1ccccc1-c1cc(NCc2ccccc2)ncn1 | 20%
CS(=O)(=O)c1ccc(Cn2c3c(c4cc(F)cc(F)c42)CCC[C@H]3CC(=O)O)cc1 | -72%[inhibitor]
O=c1c(CCc2ccccc2)nc2cncnc2n1-c1ccccc1 | 6%
NC/C=C/C(=O)O | ?
C=CC(C1=CC(=O)C=CC1=O)c1ccc(O)cc1 (stereo not given) | 4%
COCc1c(C(=O)N2CCC(N3CCCCC3)CC2)cnn1-c1ncc(C)c(-c2cccs2)n1 | 3%
COc1cc2c(cc1OC)C1C(=O)c3c(O)cc4c(c3OC1CO2)C=CC(C)(C)O4 (stereo not given) | 2%
CCCCNC(=O)[C@@H]1CC=C[C@@H]2CCN(Cc3ccccc3)C(=O)[C@@H]21 | 24%

Six entries out of the list above, sorted by the number in EPAC1 agonist, falling.
Molecule | EPAC1 agonist
CCCCNC(=O)[C@@H]1CC=C[C@@H]2CCN(Cc3ccccc3)C(=O)[C@@H]21 | 24%
CN(C)Cc1ccccc1-c1cc(NCc2ccccc2)ncn1 | 20%
O=c1c(CCc2ccccc2)nc2cncnc2n1-c1ccccc1 | 6%
COCc1c(C(=O)N2CCC(N3CCCCC3)CC2)cnn1-c1ncc(C)c(-c2cccs2)n1 | 3%
COc1cc2c(cc1OC)C1C(=O)c3c(O)cc4c(c3OC1CO2)C=CC(C)(C)O4 (stereo not given) | 2%
O=C(O)C=Cc1ccc(Cn2ccnc2)cc1 | -4%

(list continues)
compound | EPAC1 agonist
Cc1noc(C)c1C(=O)N1CCC2(CCCN(C(c3ccccc3)c3ccccc3)C2)CC1 | ?
Nc1ncn([C@@H]2O[C@H](CO)[C@@H](O)[C@H]2O)c(=O)n1 | -2%&-24%
CO[C@H]1C[C@H](O[C@H]2[C@H](C)[C@@H](O[C@@H]3O[C@H](C)C[C@H](N(C)C)[C@H]3OC(C)=O)[C@@H](C)C[C@]3(CO3)C(=O)[C@H](C)[C@@H](OC(C)=O)[C@@H](C)[C@@H](C)OC(=O)[C@@H]2C)O[C@@H](C)[C@@H]1OC(C)=O | -16%
CN1CCC(=O)N(CCSc2ccccc2)CC1 | ?
COC(=O)C1CCN(c2nc(CN(C)C3CCOC3)nc3cc(OC)c(OC)cc23)CC1 (stereo not given) | 2%

From PubChem BioAssay

A portion of the library. The share of hits here may be higher or lower than overall.
